RanGTP-Imp inh – inhibitors of RanGTP-importin-beta interaction, primary screen, biochemical, FRET, CFP-Ran, YFP-importin-beta, homogeneous. Ran GTPase (GTP-bound) - importin-beta complex. cell-free CFP-Ran/YFP-importin-beta FRET ratio. inhibition, % (test concentration not listed). 300,000 compounds, 1.1% hits;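 active means most replicates above 15%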;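 further: 0% = DMSO wells and 100% = Ran loaded with GDP instead of GTP; wells of about 40 µL received 100 nL stock; the first replicate is given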
T cruzi repl – inhibitors of intracellular T. cruzi growth, primary screen, luminescence, NIH3T3 host cells; T. cruzi beta-gal in NIH3T3, 90 h; inhibition, % (no concentration beside the values); 300,000 compounds, 1.4% hits;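 active means mean inhibition across valid replicates above about 55%, limit read from the data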;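 further: signal also drops with host cell toxicity which is not excluded here; 0% = plate median of DMSO wells and 100% = zero luminescence signal; higher percent means less beta-gal luminescence so fewer parasites; stock transfer was 50 nL into about 50 µL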
Beta apoptosis – inhibitors of cytokine-induced beta cell apoptosis, primary screen, luminescence; INS-1E cytokine-induced death, ATP luminescence, 48 h; percent of positive-control rescue, neutral wells zero; protection from apoptosis, % (concentration not given with the values); 300,000 compounds, 0.8% hits;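 active means all replicates at 75% or more, or half of them and the mean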;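 further: 0% = cytokine-treated negative control wells and 100% = positive control rescue; higher means more ATP so stronger rescue from cytokine killing; wells of about 40 µL received 100 nL stock; the first replicate is given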
Calb FLC – C. albicans growth inhibition with fluconazole, primary screen, CaCi-2 strain, Alamar Blue fluorescence. C. albicans CaCi-2 (fluconazole-resistant clinical isolate) + fluconazole, 48 h. growth inhibition, % (no concentration beside the values). 300,000 compounds, 0.57% hits. AID 1979, 2009;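 active means most replicates above 75%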;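 further: all wells also contain fluconazole at 8 µg/ml as a sub-toxic cotreatment; 0% = median of DMSO wells and 100% = median of geldanamycin control wells; wells of about 8 µL received 7.5 nL stock; the first replicate is given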
UCH37 DUB inh – inhibitors of human UCH37 deubiquitinase, primary screen, biochemical, Ub-AMC cleavage, fluorescence; inhibition, % (no concentration beside the values); purified proteasome/UCH37; 330,000 compounds, 0.33% hits;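 active means mean of two replicates above 20%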;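 further: 0% = compound-free wells with enzyme and 100% = wells lacking proteasome; stock transfer was 100 nL into about 20 µL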
Target sequence (Q9Y5K5 whole entry, looked up): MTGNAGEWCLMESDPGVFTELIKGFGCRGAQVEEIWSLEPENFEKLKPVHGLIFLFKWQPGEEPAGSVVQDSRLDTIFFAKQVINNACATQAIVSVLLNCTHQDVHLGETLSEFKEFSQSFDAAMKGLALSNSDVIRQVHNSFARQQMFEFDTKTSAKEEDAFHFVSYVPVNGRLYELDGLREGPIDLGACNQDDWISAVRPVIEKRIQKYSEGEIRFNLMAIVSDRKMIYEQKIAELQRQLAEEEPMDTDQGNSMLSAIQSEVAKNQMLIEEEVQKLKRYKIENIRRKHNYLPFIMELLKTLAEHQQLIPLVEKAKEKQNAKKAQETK
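Schedule: 30 min plus 25 min, room temperature / Material: human UCH37 within purified proteasomes / Technique: AMC fluorescence intensity at 355/460 nm / Buffer or medium: pH 7.4 Tris-HCl (50 mM) with ovalbumin, ATP-MgCl2, DTT / Controls: wells without proteasome as full block, compound-free enzyme plus substrate as uninhibited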
LANA-H2B inh – blockers of LANA interaction with H2A/H2B – biochemical, FP readout, HTS, primary screen | Protein LANA1 (Human herpesvirus 8 type P (isolate GK18)), Q9QR71 | cell-free LANA-H2A/H2B peptide, fluorescence polarization | 320,000 compounds, 0.6% hits | inhibition, % (test concentration not listed); in the data active means inhibition mostly above about 10%, no sharp cut-off; inactive means mostly below about 6.7%;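 further: stock transfer was 7.5 nL into about 10 µL; 0% = median of vehicle wells and 100% = median of positive control wells; one replicate is shown; the record names a cut of 25% in any replicate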
Bfl-1 A1 inh – caspase 3/7 activation in MEF A1-2A-BIM cells, primary screen, A1 inhibitor project, cell-based, luminescence, HTS | 330,000 compounds, 0.066% hits | caspase activation, % (concentration not given with the values) | Caspase-Glo 3/7 luminescence, 3 h; percent of clofoctol response, vehicle zero | AID 2462, 2010;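 active means over half of replicate activation scores above 10%, or exactly half above 10 with the replicate mean above 10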;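 further: wells of about 30 µL received 50 nL stock; many hits fall short of the cut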
Beta2AR agonist – beta2AR agonists driving receptor internalization, primary screen, cell-based, FAP fluorogen, flow cytometry; Am2.2-beta2AR cells; reference of the scale not given here; response, % (no concentration beside the values); 340,000 compounds, 0.43% hits;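 active means response above a set limit, near 3 SD of response in nonfluorescent compounds, cut at about 42% in these data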;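 further: stock transfer was 100 nL into about 11 µL; a reference agonist was the positive control; negative values mostly stem from fluorescent compounds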
Target sequence (P07550 whole entry, looked up): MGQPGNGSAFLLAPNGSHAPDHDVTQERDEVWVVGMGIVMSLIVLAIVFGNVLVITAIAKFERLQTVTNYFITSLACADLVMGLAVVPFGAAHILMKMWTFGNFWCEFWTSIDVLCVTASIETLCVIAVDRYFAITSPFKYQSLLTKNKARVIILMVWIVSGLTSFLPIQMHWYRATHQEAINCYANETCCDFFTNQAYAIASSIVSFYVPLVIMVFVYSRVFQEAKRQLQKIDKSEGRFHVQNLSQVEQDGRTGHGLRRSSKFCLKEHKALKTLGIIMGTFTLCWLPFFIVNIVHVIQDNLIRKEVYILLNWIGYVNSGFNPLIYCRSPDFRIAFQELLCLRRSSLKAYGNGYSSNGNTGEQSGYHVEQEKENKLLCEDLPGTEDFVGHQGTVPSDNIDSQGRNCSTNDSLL
An asterisk follows results filed as active; · = not tested or not shown.

SMILES	RanGTP-Imp inh	T cruzi repl	Beta apoptosis	Calb FLC	UCH37 DUB inh	LANA-H2B inh	Bfl-1 A1 inh	Beta2AR agonist
CCCOc1ccc(C(F)(F)F)cc1NC(=O)C1CC(=O)N(Cc2ccco2)C1 (stereo not given)	·	·	3	·	5.3	-1.6	1.0	0
CCCCN(C)S(=O)(=O)c1cc2c3c(c1)CCC(=O)N3CCC2	-3.2	-12	-10	40	3.2	0.0	0.3	3
O=S(=O)(Nc1ccn(-c2ccccc2)n1)c1ccc(Br)cc1	-4.2	11	1	35	0.4	-4.2	0.4	-3
Cc1nc(N2CCOCC2)[nH]c(=O)c1[N+](=O)[O-]	-0.3	0	-7	6	7.2	4.8	0.2	2
O=C(Nc1cc(-c2ccccc2)[nH]n1)c1ccccc1	2.2	-1	-16	-4	5.3	7.0	-1.5	0
Nc1nncn1C(=O)CCCN1C(=O)c2ccccc2C1=O	-4.1	-12	-5	-6	1.3	-0.4	0.8	-6
COCC(=O)N1CCC(Oc2ccc(C(=O)NCc3cnc(C)cn3)cc2)CC1	-2.2	6	-4	0	5.3	5.3	0.0	-1
Cc1noc(C)c1S(=O)(=O)Nc1ccc2c(c1)C(=O)N([C@H](C)CO)C[C@H](C)[C@@H](CN(C)Cc1ccc(C(=O)O)cc1)O2	·	·	0	·	0.7	4.0	0.7	-6
Nc1nonc1-n1nnc(C(=O)N/N=C/c2ccccc2)c1CSc1ccccc1	2.8	-1	-1	5	·	2.9	0.3	-5
CC1CC(C)CN(C(=O)Cc2c(C(=O)O)[nH]c3ccc(Cl)cc23)C1 (stereo not given)	-7.4	5	1	1	3.7	-2.6	0.2	-1
COc1cc(/C=c2\sc3n(c2=O)CCCN=3)ccc1O	-7.7	6	-1	-1	·	-3.1	-1.0	-16
C=CCOC(=O)C1=C[C@@H](c2ccc(C(F)(F)F)cc2)C[C@@H](OCc2ccc(CO)cc2)O1	-0.3	17	1	-8	3.6	1.0	-1.1	2
Cc1ccccc1NC(=O)COC(=O)c1c(-c2ccccc2)noc1C	·	·	-1	·	-1.0	-2.2	-1.3	-3
CSc1ccc(CN(C)CC(=O)NC(=O)NC(C)(C)C)cc1	-1.2	-4	-2	-23	3.4	0.1	0.0	-4
Cc1nc(-c2coc3cc(O)c(C)cc3c2=O)cs1	8.6	-16	21	10	-23	-0.8	-12	6
COc1cc(NC(=O)CSc2nc3ncnc(N)c3[nH]2)c(C(=O)O)cc1OC	1.9	-13	0	5	0.0	-3.2	-0.6	0
COCCCNC1=C(Cl)C(=O)c2ccccc2C1=O	0.8	2	·	-1	13	4.9	-0.3	-7
Nc1ccc(C(=O)OCC(=O)Nc2ccc([N+](=O)[O-])cc2C(F)(F)F)cc1	-3.2	7	·	-33	0.0	-7.1	0.4	-5
Cc1ccc(S(=O)(=O)NCc2ccc(C(=O)NCCCN3CCN(C)CC3)cc2)cc1	2.9	15	1	6	3.9	-0.2	0.3	8
COc1ccc(-n2ncc3c(=O)n(CC(=O)NC(C)C)cnc32)cc1	-2.7	-11	-2	13	-3.3	-0.1	-0.3	1

Screens in order: RanGTP-Imp inh, T cruzi repl, Beta apoptosis, Calb FLC, UCH37 DUB inh, LANA-H2B inh, Bfl-1 A1 inh, Beta2AR agonist
- COc1cc2c(cc1OC)CN(C(=O)/C=C/c1cc(OC)c(OC)c(OC)c1)CC2
 : 2.2, 7, -4, 6, -6.1, -3.2, 0.5, -4
- Cc1ccc(C(=O)NNC(=O)C2CCN(S(=O)(=O)c3ccc(C)cc3)CC2)cc1
 : 3.1, -2, -6, 1, 4.2, -1.0, 0.3, -6
- COc1ccc(C(=O)NC2CCN(C(=S)Nc3ccccc3C)CC2)cc1
 : 2.7, 7, 7, 4, -0.8, -1.6, -1.3, 7
- CN(C)S(=O)(=O)c1cc(C(=O)NCc2ccccc2)c(Cl)cc1Cl
 : -0.4, 9, 3, 11, -0.2, -1.5, 0.4, -8
- CCOC(=O)CC(c1ccc([N+](=O)[O-])cc1)n1c(C)ccc1C (stereo not given)
 : -4.9, 12, -8, 17, 6.4, 0.6, 0.1, 6
- O=C(O)c1ccc(Cn2cnc3scc(-c4ccccc4)c3c2=O)cc1
 : 3.2, -10, -6, 3, 3.0, 2.4, 0.7, 3
- CCOC(=O)N1CCN(C(=O)CNS(=O)(=O)c2c(C)cc(C)cc2C)CC1
 : -2.1, -12, ·, 0, 7.2, -1.2, -0.8, -4
- CCC(C)NC(=O)/C=C/c1cccs1 (stereo not given)
 : -0.1, -16, 2, -3, 1.2, 2.8, -0.5, -5
- Cn1c(N)c(C(=O)CNC2CCCCC2)c(=O)n(C)c1=O
 : 1.1, -1, -8, -5, 1.7, -2.3, -0.8, -8
- CSc1nc2sc3c(c2c(=O)[nH]1)CCC(C)C3 (stereo not given)
 : 4.4, 6, 3, 4, 2.5, -5.3, 0.6, 2

13 compounds out of the list, ordered by heavy-atom count, largest number first:
Screens in order: RanGTP-Imp inh, T cruzi repl, Beta apoptosis, Calb FLC, UCH37 DUB inh, LANA-H2B inh, Bfl-1 A1 inh, Beta2AR agonist
- Cc1ccc(S(=O)(=O)NCc2ccc(C(=O)NCCCN3CCN(C)CC3)cc2)cc1
 : 2.9, 15, 1, 6, 3.9, -0.2, 0.3, 8
- COc1cc2c(cc1OC)CN(C(=O)/C=C/c1cc(OC)c(OC)c(OC)c1)CC2
 : 2.2, 7, -4, 6, -6.1, -3.2, 0.5, -4
- Cc1ccc(C(=O)NNC(=O)C2CCN(S(=O)(=O)c3ccc(C)cc3)CC2)cc1
 : 3.1, -2, -6, 1, 4.2, -1.0, 0.3, -6
- COc1cc(NC(=O)CSc2nc3ncnc(N)c3[nH]2)c(C(=O)O)cc1OC
 : 1.9, -13, 0, 5, 0.0, -3.2, -0.6, 0
- Nc1ccc(C(=O)OCC(=O)Nc2ccc([N+](=O)[O-])cc2C(F)(F)F)cc1
 : -3.2, 7, ·, -33, 0.0, -7.1, 0.4, -5
- O=C(O)c1ccc(Cn2cnc3scc(-c4ccccc4)c3c2=O)cc1
 : 3.2, -10, -6, 3, 3.0, 2.4, 0.7, 3
- COc1ccc(-n2ncc3c(=O)n(CC(=O)NC(C)C)cnc32)cc1
 : -2.7, -11, -2, 13, -3.3, -0.1, -0.3, 1
- CN(C)S(=O)(=O)c1cc(C(=O)NCc2ccccc2)c(Cl)cc1Cl
 : -0.4, 9, 3, 11, -0.2, -1.5, 0.4, -8
- CCOC(=O)CC(c1ccc([N+](=O)[O-])cc1)n1c(C)ccc1C (stereo not given)
 : -4.9, 12, -8, 17, 6.4, 0.6, 0.1, 6
- Cn1c(N)c(C(=O)CNC2CCCCC2)c(=O)n(C)c1=O
 : 1.1, -1, -8, -5, 1.7, -2.3, -0.8, -8
- Cc1nc(-c2coc3cc(O)c(C)cc3c2=O)cs1
 : 8.6, -16, 21, 10, -23, -0.8, -12, 6
- CSc1nc2sc3c(c2c(=O)[nH]1)CCC(C)C3 (stereo not given)
 : 4.4, 6, 3, 4, 2.5, -5.3, 0.6, 2
- CCC(C)NC(=O)/C=C/c1cccs1 (stereo not given)
 : -0.1, -16, 2, -3, 1.2, 2.8, -0.5, -5

Bioassay records (PubChem)
